Source: PubChem
HIV Env fusion: HIV envelope-mediated fusion inhibition. HeLa-JRFL Env/CEM21 cell fusion, luciferase. inhibition, % at 12.3 µM. 360,000 compounds, 1.1% hits. AID 651610;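 active means mean replicate inhibition score of at least 50 and every replicate individually at or above 50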;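 further: 0% = plate neutral controls and 100% = maraviroc near 300 nM; one replicate is shown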
eIF4H inh: inhibitors of RNA binding by human eIF4H | Q15056 | eIF4H fluorescence polarization binding assay | inhibition, % at 35 µM | 290,000 compounds, 0.94% hits | AID 2012;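 active means 50% or more with normal probe brightness, or confirmed in later tests; about a fifth of its hits are not listed in these tables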;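 further: calls also rest on retests at 20 µM and on dose response follow-up; 0% = protein and probe with vehicle and 100% = probe without protein; strong numbers were not always called active; many hits fall short of the cut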
UUG fidelity: alters start codon recognition fidelity in yeast; S. cerevisiae UUG-firefly luciferase reporter, luminescence/redox ratio; activity score, % at 18.7 µM; 350,000 compounds, 0.13% hits;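 active means replicate mean at a twofold rise or more, about +100% in these data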;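 further: firefly luciferase made from a UUG start codon reports start codon fidelity; reporter light over untreated wells divided by growth signal over untreated wells; some hits fall short of that in this replicate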
CSC inhib: cancer stem cell inhibition; inhibition, % at 7.5 µM; 300,000 compounds, 1.1% hits; cancer stem cell-like cells viability, luminescence; AID 2717;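 active means mean at 75% or more and at least half the replicates too; tested in HMLE shEcad cells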;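 further: 0% = median of negative and 100% = median of positive control wells; the first replicate is given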
PABP polyA inh: blocks human PABP binding to poly(A) RNA | fluorescence polarization | inhibition, % at 35 µM | 290,000 compounds, 1% hits | AID 2014;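 active means 50% or more with normal probe brightness, or confirmed in later tests; about a fifth of its hits are not listed in these tables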;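 further: calls also rest on retests at 20 µM and on dose response follow-up; controls were probe without protein and protein plus probe with vehicle; some compounds called inactive have numbers as strong as hits; many hits fall short of the cut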
Target sequence (P11940 whole entry, looked up): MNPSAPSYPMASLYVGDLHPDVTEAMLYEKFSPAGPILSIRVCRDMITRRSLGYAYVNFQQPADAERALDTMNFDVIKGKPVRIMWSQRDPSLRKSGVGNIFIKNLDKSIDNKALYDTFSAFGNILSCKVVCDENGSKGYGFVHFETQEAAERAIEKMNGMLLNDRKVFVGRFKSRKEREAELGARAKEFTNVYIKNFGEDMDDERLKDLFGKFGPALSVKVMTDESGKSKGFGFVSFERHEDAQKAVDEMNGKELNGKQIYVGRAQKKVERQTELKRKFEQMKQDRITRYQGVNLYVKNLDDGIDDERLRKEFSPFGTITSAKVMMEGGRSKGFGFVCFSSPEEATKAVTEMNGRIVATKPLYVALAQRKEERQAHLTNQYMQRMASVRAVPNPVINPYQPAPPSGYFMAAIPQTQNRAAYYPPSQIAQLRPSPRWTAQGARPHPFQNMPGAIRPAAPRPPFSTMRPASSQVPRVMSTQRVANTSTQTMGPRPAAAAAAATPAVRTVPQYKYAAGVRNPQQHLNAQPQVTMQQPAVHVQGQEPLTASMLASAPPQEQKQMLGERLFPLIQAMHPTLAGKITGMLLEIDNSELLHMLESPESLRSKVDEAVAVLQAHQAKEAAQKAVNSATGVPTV
MT1-MMP act inh: inhibitors of human MT1-MMP activation; HT1080 RFP-PRO-GFP cells, GFP/RFP ratio fluorescence, overnight; percent of plate control window, DMSO zero; GFP/RFP ratio change, % at 20 µM; 360,000 compounds, 0.061% hits; AID 651647;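 active means GFP/RFP ratio change of at least 30% with cell ATP level not reduced by more than half and red fluorescence within 50% of control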; further: strong numbers were not always called active
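Test system: HT1080 cells expressing an RFP-PRO-GFP fluorescent reporter construct / Compound dosing: single-point 20 µM compound, 1% DMSO / Schedule: cells overnight before dosing, compound overnight, 37 °C, 5% CO2 / Evaluation: GFP/RFP fluorescence ratio / Control set: DMSO and RFP-L50D-GFP cell wells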
Rce1 inh: yeast Ras-converting enzyme inhibition; 290,000 compounds, 0.27% hits; calls only; yeast membranes, quenched prenylated peptide cleavage fluorescence;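 active means fall in fluorescence gain of 50% or more versus controls, with final raw signal at or below 3038400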;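 further: plate controls were neutral control wells for no effect and wells lacking membranes for full effect; tested at 10 µM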
MT1-MMP act inh RFP: second read-out of MT1-MMP act inh, no call of its own (marks repeat the call); RFP signal change, %; measured here: RFP expression control read;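 0 = vehicle wells; hits needed this value within 50% of zero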
* = called active by the depositor.

Screening O=C(COC(=O)c1ccc(S(=O)(=O)C(F)F)cc1)Nc1ccccc1C(=O)NC1CC1 returned UUG fidelity -7, CSC inhib -8, MT1-MMP act inh -3 and MT1-MMP act inh RFP -3.
For N#Cc1cc2cc3c(cc2nc1NCCNC(=S)NCCCN1CCOCC1)OCO3 the results were HIV Env fusion 11, eIF4H inh 16, CSC inhib -7, PABP polyA inh 17, MT1-MMP act inh 1, Rce1 inh inactive and MT1-MMP act inh RFP 2.
Screening CCCc1cc(C(F)(F)F)c(C#N)c(=O)[nH]1 returned HIV Env fusion -33, eIF4H inh 0, UUG fidelity -12, CSC inhib -2, PABP polyA inh 1, MT1-MMP act inh 4, Rce1 inh inactive and MT1-MMP act inh RFP 6.
`CCOC(=O)C(=CNc1cc(C)ccc1-n1cccc1)C(=O)OCC` gave HIV Env fusion 17, eIF4H inh 8, UUG fidelity -2, CSC inhib -3, PABP polyA inh 9, MT1-MMP act inh -3, Rce1 inh inactive and MT1-MMP act inh RFP -6.
Screening COc1ccc(CN2CCNC(=O)C2CC(=O)N(C)Cc2nc(C)cs2)c(OC)c1 (centres undefined) returned HIV Env fusion -18, eIF4H inh 9, UUG fidelity 2, CSC inhib -10, PABP polyA inh 6, MT1-MMP act inh -2, Rce1 inh inactive and MT1-MMP act inh RFP -3.
`CCc1ccc(/C=C2/SC(=S)N(CCCC(=O)Nc3cccc(C(=O)O)c3)C2=O)cc1` gave HIV Env fusion 4, UUG fidelity -21, MT1-MMP act inh 6 and MT1-MMP act inh RFP -5.
`CC(C)c1ccc(/C=C/C(=O)NCCC2=CCCCC2)cc1` gave HIV Env fusion 13, eIF4H inh -3, UUG fidelity -5, CSC inhib 16, PABP polyA inh -13, MT1-MMP act inh 3, Rce1 inh inactive and MT1-MMP act inh RFP 7.
Screening Cn1c(=O)c2[nH]c(SCCN3CCCCC3)nc2n(C)c1=S returned HIV Env fusion -10, UUG fidelity -15, MT1-MMP act inh 2 and MT1-MMP act inh RFP -1.
O=C(COC(=O)Cn1cnc2ccccc2c1=O)Nc1cc(Cl)ccc1[N+](=O)[O-] was read as HIV Env fusion -21, eIF4H inh -7, CSC inhib -13, PABP polyA inh -16, MT1-MMP act inh 5, Rce1 inh inactive and MT1-MMP act inh RFP 6.
Screening CCOc1ccc(N(C(C)C(=O)N2CCOCC2)S(C)(=O)=O)cc1 (centres undefined) returned HIV Env fusion -24, eIF4H inh -4, UUG fidelity -9, CSC inhib 6, PABP polyA inh -13, MT1-MMP act inh -1, Rce1 inh inactive and MT1-MMP act inh RFP -2.
For COc1ccc(Cl)c(-c2cc(C(=O)NCc3ccco3)[nH]n2)c1 the results were HIV Env fusion -95, UUG fidelity -29, MT1-MMP act inh 6 and MT1-MMP act inh RFP 7.
`CCOC(=O)C1(CC)Oc2ccccc2C(c2ccc(OC)cc2)=C1C(=O)OC` (centres undefined) gave HIV Env fusion -1, UUG fidelity -4, MT1-MMP act inh -9 and MT1-MMP act inh RFP -9.
For Cc1cccc(NC(=O)C(C)N2C(=O)c3ccccc3S2(=O)=O)n1 (centres undefined) the results were UUG fidelity -11, CSC inhib -10, MT1-MMP act inh 2, Rce1 inh inactive and MT1-MMP act inh RFP 3.
Screening O=C(N/N=C1\CCc2ccccc21)c1ccccc1O returned HIV Env fusion -24, eIF4H inh -4, CSC inhib 32, PABP polyA inh 2, MT1-MMP act inh 5, Rce1 inh inactive and MT1-MMP act inh RFP 1.
NCC(O)CN1CCN(Cc2ccccc2)CC1 (centres undefined) was read as HIV Env fusion 19, eIF4H inh 1, UUG fidelity -7, CSC inhib -10, PABP polyA inh 11, MT1-MMP act inh 1, Rce1 inh inactive and MT1-MMP act inh RFP 2.
For N#CCc1ccc(NC(=O)c2cc(S(=O)(=O)N3CCOCC3)ccc2Cl)cc1 the results were HIV Env fusion 5, eIF4H inh 0, UUG fidelity -16, CSC inhib -29, PABP polyA inh -3, MT1-MMP act inh 2, Rce1 inh inactive and MT1-MMP act inh RFP -8.
For CCCC(=O)C1C(=O)CC(C)(C)C(c2cc(C)no2)C1=O (centres undefined) the results were eIF4H inh -2, UUG fidelity -10, CSC inhib -2, PABP polyA inh 13, MT1-MMP act inh 1, Rce1 inh inactive and MT1-MMP act inh RFP 3.
CCCN(CCO)Cc1ccc2ccccc2c1 was read as eIF4H inh 2, UUG fidelity -10, CSC inhib -13, PABP polyA inh 13 and Rce1 inh inactive.
CCc1nc2c(OCc3ccc(Cl)cc3Cl)cccn2c1N(C)C(=O)C(C)C was read as HIV Env fusion 19, UUG fidelity -13, MT1-MMP act inh -16 and MT1-MMP act inh RFP -13.
Screening Cc1c(C(=O)Nc2c(C)n(C)n(-c3ccccc3)c2=O)oc2c(Cl)cccc12 returned HIV Env fusion 7, eIF4H inh 4, UUG fidelity -11, PABP polyA inh 10, MT1-MMP act inh -2, Rce1 inh inactive and MT1-MMP act inh RFP 1.
Screening COc1ccc(CC(=O)N2CCN(c3ccccn3)CC2)cc1 returned eIF4H inh 21, UUG fidelity -11, CSC inhib -29, PABP polyA inh 2, MT1-MMP act inh -4, Rce1 inh inactive and MT1-MMP act inh RFP 0.
`Cc1ccc(N2CC(C(=O)N3CCC(C(=O)NCCCOC(C)C)CC3)CC2=O)cc1` (centres undefined) gave HIV Env fusion 1, eIF4H inh -5, UUG fidelity -4, CSC inhib -9, PABP polyA inh 1, MT1-MMP act inh -2, Rce1 inh inactive and MT1-MMP act inh RFP -6.
For COC(=O)c1ccccc1NC(=O)COc1ccccc1 the results were HIV Env fusion -13, eIF4H inh 0, UUG fidelity 4, CSC inhib -1, PABP polyA inh -1, MT1-MMP act inh -7, Rce1 inh inactive and MT1-MMP act inh RFP -1.
For O=C(NCCc1ccc(F)cc1)C1CCCCC1 the results were HIV Env fusion -12, eIF4H inh 2, PABP polyA inh 2, MT1-MMP act inh 2, Rce1 inh inactive and MT1-MMP act inh RFP 5.
`COc1ccc(-c2nc(CNS(=O)(=O)c3ccc(OC)c(OC)c3)cs2)cc1` gave HIV Env fusion -6, eIF4H inh -2, UUG fidelity 10, CSC inhib -3, PABP polyA inh -8, MT1-MMP act inh 3, Rce1 inh inactive and MT1-MMP act inh RFP 2.
O=C(NC1CCCCC1)c1cccs1 was read as HIV Env fusion -19, eIF4H inh -9, UUG fidelity -9, CSC inhib 6, PABP polyA inh 5, MT1-MMP act inh -2, Rce1 inh inactive and MT1-MMP act inh RFP 1.
CC1CN(S(=O)(=O)c2cccc(C(=O)Nc3ccc4c(c3)CCC4)c2)CC(C)O1 (centres undefined) was read as eIF4H inh -4, PABP polyA inh 0, MT1-MMP act inh 5, Rce1 inh inactive and MT1-MMP act inh RFP -15.
For COc1ccc(/C=C/C(=O)Nc2ccccc2C)cc1S(=O)(=O)N1CCOCC1 the results were HIV Env fusion 13, eIF4H inh -4, CSC inhib 5, PABP polyA inh 9, MT1-MMP act inh -4, Rce1 inh inactive and MT1-MMP act inh RFP -27.
`CC12CCC(C(N)=O)(C1Br)C2(C)C` (centres undefined) gave eIF4H inh -2, CSC inhib -7, PABP polyA inh -1, MT1-MMP act inh 2, Rce1 inh inactive and MT1-MMP act inh RFP 2.
For CCC(=O)Nc1ccc(N2CCN(C(=O)c3cccs3)CC2)cc1 the results were HIV Env fusion -11, eIF4H inh -2, CSC inhib -11, PABP polyA inh 8, MT1-MMP act inh -2, Rce1 inh inactive and MT1-MMP act inh RFP -4.
For O=C(Nc1ccc(C(=O)N2CCCC2)cc1)C1CCC1 the results were HIV Env fusion -11, UUG fidelity -21, MT1-MMP act inh 2 and MT1-MMP act inh RFP 2.
O=C(Nc1ccc(-n2cc(Br)cn2)cc1)c1ccncc1 was read as HIV Env fusion -3, eIF4H inh 4, UUG fidelity 4, CSC inhib 3, PABP polyA inh -2 and Rce1 inh inactive.
`O=C(O)c1csc(-n2nc(-c3ccccc3)cc2C(F)(F)F)n1` gave HIV Env fusion 22, eIF4H inh 11, CSC inhib 2, PABP polyA inh 0, MT1-MMP act inh -3, Rce1 inh inactive and MT1-MMP act inh RFP 2.
`COc1ccc(C)cc1NC(=O)C(OC(=O)CNC(=O)c1cc(C)cc(C)c1)c1ccccc1` (centres undefined) gave HIV Env fusion 6, eIF4H inh -11, CSC inhib -7, PABP polyA inh 0, MT1-MMP act inh -3, Rce1 inh inactive and MT1-MMP act inh RFP 2.
`CSc1ccc(C(=O)N2CCC(CCC(=O)NC3CC3)CC2)cc1` gave HIV Env fusion -13, eIF4H inh 8, UUG fidelity -4, CSC inhib 4, PABP polyA inh 3, MT1-MMP act inh 2, Rce1 inh inactive and MT1-MMP act inh RFP 2.
For CCCCCOC(=O)c1ccccc1C(=O)O the results were HIV Env fusion -40, eIF4H inh 13, UUG fidelity 6, CSC inhib 3, PABP polyA inh 19, MT1-MMP act inh 1, Rce1 inh inactive and MT1-MMP act inh RFP 7.
Screening Cc1ccc(-c2nc3ncccc3o2)cc1NC(=O)CC(C)C returned eIF4H inh 5, CSC inhib -4, PABP polyA inh -10, MT1-MMP act inh -1, Rce1 inh inactive and MT1-MMP act inh RFP 3.
Screening CCCCN(CC)Cc1ccc(CNC(=O)Nc2ccc(OC)cc2OC)o1 returned eIF4H inh -3, UUG fidelity -14, CSC inhib 0, PABP polyA inh -2, MT1-MMP act inh -1, Rce1 inh inactive and MT1-MMP act inh RFP 6.
`COc1ccc(S(=O)(=O)N2CCCCCC2)cc1NC(=O)Cc1ccc(OC)c(OC)c1` gave HIV Env fusion 50, UUG fidelity -8, CSC inhib -7, MT1-MMP act inh 4 and MT1-MMP act inh RFP -7.
Screening O=C(CCCc1nc(-c2ccccc2Cl)no1)NCc1cccnc1 returned HIV Env fusion -15, eIF4H inh -4, UUG fidelity -15, CSC inhib -14, PABP polyA inh 2, MT1-MMP act inh 8, Rce1 inh inactive and MT1-MMP act inh RFP 0.
`COCCN(C(=O)CSc1nnc(-c2cccc(F)c2)n1N)c1c(N)n(CC(C)C)c(=O)[nH]c1=O` gave HIV Env fusion -196, eIF4H inh -5, UUG fidelity -5, CSC inhib -9, PABP polyA inh -1, MT1-MMP act inh -1, Rce1 inh inactive and MT1-MMP act inh RFP 6.
For Cc1csc(SCC(=O)Nc2cccc(C)c2C)n1 the results were HIV Env fusion -7, UUG fidelity -15, CSC inhib -6, MT1-MMP act inh -3 and MT1-MMP act inh RFP 0.

Reprinted from above, six compounds:
For CCC(=O)Nc1ccc(N2CCN(C(=O)c3cccs3)CC2)cc1 the results were HIV Env fusion -11, eIF4H inh -2, CSC inhib -11, PABP polyA inh 8, MT1-MMP act inh -2, Rce1 inh inactive and MT1-MMP act inh RFP -4.
For O=C(Nc1ccc(C(=O)N2CCCC2)cc1)C1CCC1 the results were HIV Env fusion -11, UUG fidelity -21, MT1-MMP act inh 2 and MT1-MMP act inh RFP 2.
O=C(Nc1ccc(-n2cc(Br)cn2)cc1)c1ccncc1 was read as HIV Env fusion -3, eIF4H inh 4, UUG fidelity 4, CSC inhib 3, PABP polyA inh -2 and Rce1 inh inactive.
`O=C(O)c1csc(-n2nc(-c3ccccc3)cc2C(F)(F)F)n1` gave HIV Env fusion 22, eIF4H inh 11, CSC inhib 2, PABP polyA inh 0, MT1-MMP act inh -3, Rce1 inh inactive and MT1-MMP act inh RFP 2.
`COc1ccc(C)cc1NC(=O)C(OC(=O)CNC(=O)c1cc(C)cc(C)c1)c1ccccc1` (centres undefined) gave HIV Env fusion 6, eIF4H inh -11, CSC inhib -7, PABP polyA inh 0, MT1-MMP act inh -3, Rce1 inh inactive and MT1-MMP act inh RFP 2.
`CSc1ccc(C(=O)N2CCC(CCC(=O)NC3CC3)CC2)cc1` gave HIV Env fusion -13, eIF4H inh 8, UUG fidelity -4, CSC inhib 4, PABP polyA inh 3, MT1-MMP act inh 2, Rce1 inh inactive and MT1-MMP act inh RFP 2.

The list is partial (hit frequency here may not be typical).
